Assay outcomes as filed in PubChem.
HCMV NEC inh = cytomegalovirus nuclear egress complex inhibition; HTRF UL50-UL53 interaction, normalized percent inhibition; 190,000 tested, 0.15% active; inhibition, % (concentration not given with the values); AID 1918969;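 active = both replicates at 50% or more, plus weaker picks with an unusually low signal ratio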;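 note: stock transfer was 100 nL into about 20 µL; 0% = negative control wells and 100% = wells with untagged competitor protein; inactives centre near -12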
Sa growth 42C = S. aureus growth inhibition | S. aureus RN4220 growth, OD600, 20 h, 42 °C; stronger effect = lower value | relative growth, % (concentration not given with the values) | 170,000 tested, 0.53% active;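 active = growth at 42 °C up to 50% and 20 or more points under that at 30 °C, or under 10% at both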;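 note: 300 nL library stock went into each well; scaled to the means of positive and negative controls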
GIV Gai3 FP = blocks GIV peptide binding to rat Galpha-i3. Galpha-i3/FITC-GIV peptide fluorescence polarization, 90 min; stronger effect = lower value; scaled: aluminum fluoride 0%, vehicle 100%. 210,000 tested, 0.42% active. percent of control (FP), % (test concentration not listed);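 active = replicate mean at 85% of control or lower, very high polarization wells dropped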;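 note: wells of about 15 µL received 100 nL stock; the first replicate is given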
Target sequence (P08753 whole entry, looked up): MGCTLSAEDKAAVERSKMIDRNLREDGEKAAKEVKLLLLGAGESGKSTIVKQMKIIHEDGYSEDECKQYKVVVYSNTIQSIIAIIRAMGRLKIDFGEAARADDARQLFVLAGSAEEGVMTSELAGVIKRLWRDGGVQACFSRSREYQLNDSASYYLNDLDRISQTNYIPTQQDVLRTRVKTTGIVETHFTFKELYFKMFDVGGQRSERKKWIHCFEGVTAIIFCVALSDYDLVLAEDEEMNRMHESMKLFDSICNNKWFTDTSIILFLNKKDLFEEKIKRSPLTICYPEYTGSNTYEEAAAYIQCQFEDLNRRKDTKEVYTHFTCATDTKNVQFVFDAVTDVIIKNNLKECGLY
Sa growth 42C second temp = second read-out of Sa growth 42C, no call of its own (marks repeat the call); relative growth, %; measured here: growth at 30 °C;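 optical density after 20 h as mean of two plates; 100% = untreated growth and lower means inhibition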
* hit, by the source's call; / = no result given.

canonical_smiles | GIV Gai3 FP | HCMV NEC inh | Sa growth 42C | Sa growth 42C second temp
Cc1nc(Oc2ccc3cnccc3c2)c2c3c(sc2n1)CCCC3 | 109 | -6 | / | /
COCCn1cnnc1SCC(=O)Nc1ccc(N2CCCCC2)cc1 | / | -18 | 103 | 84
O=C(NCC1CCN(Cc2ccccc2Cl)CC1)c1cc2ccc3cccnc3c2[nH]1 | 112 | / | 93 | 86
O=C(COC(=O)C1CCN(C(=O)c2ccc(Cl)cc2)CC1)Nc1cccc2nsnc12 | / | -60 | 95 | 95
COc1ccc(F)cc1C(O)CSCc1ccccc1 (stereo unspecified) | / | -17 | 124 | 85
Cc1cccc(-c2noc(CCCC(=O)NC3CCCCC3)n2)c1 | 111 | 15 | 106 | 91
CCN(c1ccc2oc3ccccc3c2c1)S(=O)(=O)c1ccccc1C#N | / | 13 | 118 | 102
COc1cccc(/C=C2\SC(=S)N(C(Cc3ccccc3)C(=O)O)C2=O)c1 (stereo unspecified) | 104 | / | 106 | 86
O=C(c1ccc(Br)cc1)N1CCC2(CC1)Nc1ccccc1-n1cccc12 | 103 | -28 | / | /
Cc1ccc(C2NC(C(=O)O)Cc3c2[nH]c2ccccc32)cc1 (stereo unspecified) | 107 | -8 | / | /
CNC(=O)CN1C(=O)/C(=C/c2ccccc2C)Sc2ccccc21 | 98 | / | 84 | 84
CCCCn1c(O)c(N=NC(=O)COc2ccccc2C)c2cc(OC)ccc21 | / | 4 | 76 | 62
Cc1ccc(CNC(=S)NCCCn2nccc2C)cc1 | 105 | -14 | 101 | 97
COc1ccccc1NC(=O)c1c(NCc2sccc2C)sc2c1CCCCC2 | 145 | / | 85 | 71
COc1ccccc1CNC(=O)Cn1c(-c2cccs2)cc2cc(F)ccc21 | 112 | / | 119 | 98
O=C(O)CN1C(=O)/C(=C\c2ccc(OCc3ccccc3)cc2)SC1=S | 103 | -58 | / | /
Cc1cc(C(F)F)n2ncc(C(=O)NCc3ccccc3)c2n1 | 104 | -5 | 89 | 60
Cc1c2cnn(-c3ccccc3)c(=O)c2c(C)n1CC(=O)NCc1ccccc1Br | 106 | -39 | 95 | 83
CC(C(=O)Nc1ccccc1)N1CCCCC1 (stereo unspecified) | / | -29 | 81 | 83
CCn1c(=O)c2c(C(=O)NCCCN3CCCC3=O)cc(=O)n(CC)c2n(C)c1=O | 104 | -14 | / | /
O=S(=O)(c1ccc(Cl)cc1)C(F)(F)C(F)(F)C(F)(F)F | / | -8 | 77 | 95
Cc1cc2c(c(=O)o1)C(C(C)C)C(C#N)=C(N)O2 (stereo unspecified) | 101 | -11 | 97 | 101
CC1CCCC(C)N1C(=O)COc1ccc(C(=O)N=Nc2c(O)[nH]c3ccccc23)cc1 (stereo unspecified) | / | -1 | 85 | 92
Cc1onc(-c2c(Cl)cccc2Cl)c1NC(=O)Nc1ccc(Cl)cc1 | 106 | -26 | 57 | 36
CC(=O)Oc1cc2c(C(=O)N3CCOCC3)c(C)oc2c2ccccc12 | / | -13 | 115 | 95
Cc1ccccc1Nc1c(-c2cccc(O)c2)nc2ccc(Br)cn12 | 101 | -2 | 98 | 85
Cc1cc(SCC2=NNC(=O)C2)c(Cl)cc1Cl | 110 | -19 | 93 | 86
COc1cccc(NC(=O)Cn2c(=O)n(-c3ccccc3)c(=O)c3c4c(sc32)CCCC4)c1 | 106 | -23 | 108 | 92
COCc1cc(=O)[nH]c(/N=C(\NC(=O)c2ccc(C)cc2)Nc2cccc(Cl)c2)n1 | 105 | / | 85 | 102
COc1cc(OC)c(NC(=O)C2CCN(c3ncccc3-n3c(C)ccc3C)CC2)cc1Cl | 98 | 2 | / | /
COc1ccc(NCc2cn[nH]c2-c2ccccc2)c(OC)c1 | 106 | -23 | 86 | 84
CSC1=NC2(CCCCC2)NC2=C1CCCC2 | / | -7 | 108 | 103
Cn1cnc(S(=O)(=O)N2CCCC(C(=O)Nc3ccc(S(N)(=O)=O)cc3)C2)c1 (stereo unspecified) | 101 | -21 | / | /
NCCSc1n[nH]c(=O)[nH]c1=O | / | -21 | 94 | 95
COC(=O)c1ccccc1NC(=O)Cn1c(SC)nc2ccccc21 | 107 | -21 | / | /
Cc1c(Cl)cccc1NS(=O)(=O)c1ccc(-c2cnc(C3CC3)o2)cc1 | 100 | / | 82 | 95
CN1C(=O)C(/C(N)=N\NC(=O)c2ccccc2)C2CC1(C)Oc1ccccc12 (stereo unspecified) | 108 | -8 | 94 | 82
COc1ccc(-c2oc3ncn4nc(-c5ccccc5O)nc4c3c2-c2ccc(OC)cc2)cc1 | 110 | -56 | 99 | 89
COc1cc(C2NC(=O)NC(C)=C2C(=O)OC2CCCCCC2)cc(Cl)c1O (stereo unspecified) | 94 | -8 | / | /
Cc1ccc(S(=O)(=O)N2CCCc3cc(NS(=O)(=O)c4ccc(F)cc4)ccc32)cc1 | 100 | / | 93 | 89
O=c1ccn(CN2CCCCC2)c(=O)n1CN1CCCCC1 | / | -40 | 111 | 70
CCN(CC)CC(N)c1ccccc1 (stereo unspecified) | / | -5 | 98 | 92
O=C(NC1CCCC1)c1n[nH]c(=O)c2ccccc12 | 103 | -17 | 95 | 81
COc1cccc(Cn2cnc3c([nH]c4ccc(C)cc43)c2=O)c1 | 102 | -27 | / | /
CCOc1ccc(Oc2nc(NC)nc(N3CCOCC3)n2)nn1 | 101 | 18 | 89 | 86
Cc1ccc(N2CCN(C(=O)C3CCC(CNS(=O)(=O)c4ccc(Br)s4)CC3)CC2C)cc1 (stereo unspecified) | 101 | -7 | 102 | 91
COC(=O)c1scc(-c2ccc(C)cc2)c1S(=O)(=O)N1CCN(c2ccc(C)cc2C)CC1 | 103 | / | 102 | 101
Cc1ccc2nc(CN3CCN(C(=O)Nc4ccc(F)cc4)CC3)oc2c1 | 105 | / | 97 | 88
COc1ccc(OCC(=O)Nc2ccc3c(c2)N(C)C(=O)c2ccccc2S3)cc1 | 103 | / | 114 | 87
CC1CCN(S(=O)(=O)c2ccc3c(ccn3CCC(=O)NCc3ccccc3F)c2)CC1 | 98 | / | 106 | 91
COc1ccccc1N1CCN(CCCNC(=O)c2cnn(-c3ccccc3Cl)c2C2CCN(C(=O)OC(C)(C)C)CC2)CC1 | 100 | / | 92 | 90
Cc1ccc2[nH]c(=O)c(CN(C)C(=O)C(C)C)cc2c1 | 101 | -23 | 84 | 81
CCCOc1cccc(C(=O)Nc2ccc(-c3nc4ccccc4o3)cc2)c1 | 104 | -62 | 84 | 89
COC(=N)c1nccnc1SCc1ccc(F)cc1 | 97 | -22 | 91 | 89
CCCC(=O)n1nc(-c2cccnc2)nc1NCc1ccccc1 | 104 | -34 | 103 | 84
COc1ccc(COC(=O)C2=C(C)NC(=O)NC2c2cc(Cl)c(O)c(OC)c2)cc1 (stereo unspecified) | 110 | -9 | / | /
COC(=O)c1ccc(COC(=O)C2COc3ccccc3O2)o1 (stereo unspecified) | / | -17 | 88 | 89
CC(C)c1ccc(NC(=O)c2cc3c(=O)[nH]c4ccccc4c3n2C)cc1 | 101 | -17 | 103 | 91
Cc1cc(C(=O)NCC2COc3ccccc3O2)no1 (stereo unspecified) | / | -20 | 93 | 90
O=C1CCC2(C(=O)O)N1c1ccccc1C(=O)N2C1CC1 (stereo unspecified) | / | -5 | 101 | 89

(continued)
canonical_smiles | GIV Gai3 FP | HCMV NEC inh | Sa growth 42C | Sa growth 42C second temp
COc1cc(C(=O)Nc2ccccc2C(=O)OCc2cc(=O)n3oc(C)cc3n2)cc(OC)c1OC | 105 | -18 | 94 | 87
N[C@H](C(=O)O)[C@H](Cc1ccccc1)C(=O)O | 97 | -21 | / | /
Cc1ccc(NC(=O)C2CCN(c3nc(-c4ccc(C(C)C)cc4)no3)CC2)c(Cl)c1 | 105 | / | 79 | 90
O=c1c(C=NC2CC2)c(O)n(C2CCCCC2)c(=O)n1C1CCCCC1 | 102 | -12 | 80 | 87
Cc1cccc(C)c1Nc1nc2ccccc2nc1NS(=O)(=O)c1ccccc1 | 103 | -2 | 116 | 95
O=C(NCCc1ccc(Cl)cc1)c1ccc2c(c1)N(Cc1c(F)cccc1Cl)C(=O)CS2 | 103 | 2 | 106 | 94
CCCc1n[nH]c(=O)c2c1nnn2Cc1ccccc1 | 100 | -26 | 86 | 80
O=C(Nc1ccc(-c2nc3ncccc3o2)cc1)c1ccccc1 | 107 | / | 126 | 87
CC1CCCCN1C(=S)NCc1ccco1 (stereo unspecified) | / | 1 | 92 | 95
Cc1nc2ccccc2c(=O)n1NC(=O)c1ccccc1 | 107 | -5 | 109 | 98
COc1ccc(Cn2c(CCC(=O)Nc3cc(C)cc(C)c3)nc3cccnc32)cc1 | 106 | -1 | 99 | 97
O=C(N/N=C/c1c(-c2ccccc2)nc2sccn12)c1ccc2ccccc2n1 | / | -25 | 79 | 88
O=S(=O)(Cc1ccc(Cl)cc1Cl)c1nc2ncccc2[nH]1 | / | 2 | 63 | 33
COC(=O)c1sccc1S(=O)(=O)Nc1ccc(C)cc1 | 102 | -14 | 90 | 85
Cc1ccc(S(=O)(=O)c2c(F)c(F)c(S(=O)(=O)c3ccc(C)cc3)c(F)c2F)cc1 | 106 | -24 | 112 | 101
CC1CN(S(=O)(=O)c2ccc(NC(=O)C(NC(=O)Cc3ccccc3)C(C)C)cc2)CC(C)O1 (stereo unspecified) | / | -29 | 80 | 86
OCCOCCNc1ncnc2sc(-c3ccccc3)cc12 | 108 | -69 | 120 | 60
CCc1ccc(C2CC(=O)NC(N)=N2)cc1 (stereo unspecified) | 104 | -40 | 103 | 92
COC(=O)c1cnc(NN2C(=O)CCC2=O)nc1C(F)(F)F | 101 | -26 | 87 | 90
CCOc1nc2cccnc2n(C(CC)C(=O)Nc2ccccc2CC)c1=O (stereo unspecified) | 104 | 3 | 97 | 103
COc1cccc(NC(=O)c2ccccc2Cl)c1 | 101 | -10 | 103 | 91
CC(=O)Nc1ccc(C(=O)Cn2c3[n+](c4c(F)c(F)ccc42)CCCCC3)cc1 | / | -17 | 139 | 91
Cc1ccc(Cn2c(CCCNC=O)nc3ccccc32)cc1 | 103 | -6 | 109 | 96
Cc1ccc(Oc2nc(Cl)nc(Oc3ccc(C)cc3)n2)cc1 | 103 | / | 104 | 84
CCC(CC)N1CCN(S(=O)(=O)CC)CC1 | 97 | -10 | 103 | 83
CCOC(=O)c1noc2nc(C)n(CC(=O)Nc3ccc(OC)c(Cl)c3)c(=O)c12 | 104 | / | 106 | 95
COc1ccc2oc(=Nc3ccc(Cl)cc3Cl)c(C(=O)NC(C)=O)cc2c1 | 108 | -34 | / | /
Cc1nn(C)cc1C(=O)c1ccccc1 | / | 1 | 87 | 111
CCOC(=O)c1c(-c2ccccc2)oc2ccc(OCc3c(F)c(F)c(F)c(F)c3F)cc12 | 101 | -9 | / | /
CCOc1ccccc1NC(=O)c1ccc2c(c1)CCN2S(C)(=O)=O | 103 | -3 | 101 | 95
Cc1ccc(P(=O)(CO)c2ccc(C)cc2)cc1 | 105 | 0 | 99 | 107
CCN(Cc1ccncc1)C(=O)C1CC1C (stereo unspecified) | 106 | 0 | 98 | 100
CC(=O)Nc1ccc(NC(=O)C2CCCN2S(=O)(=O)c2ccc3c(c2)CCCC(=O)N3)cc1 (stereo unspecified) | 90 | / | 85 | 88
COc1ccccc1-c1nc(-c2ccc(C(F)(F)F)cc2)no1 | 106 | -8 | 90 | 78
CCOC(=O)C(C#N)C(=O)c1ccc(N)cc1 (stereo unspecified) | / | -22 | 126 | 83
O=C(Nc1ccc2ccccc2n1)c1ccc(Cl)cc1 | 105 | -18 | 112 | 81
Cc1cc(C)c2c(=O)c3c(oc2c1)C(=O)N(CCO)C3c1ccccc1F (stereo unspecified) | 105 | -32 | 83 | 82
CCCCOc1ccc(-c2nnn(C(C)(C)C(=O)O)n2)cc1 | 96 | 9 | 124 | 101
Nc1nc(Cl)cc(N2CCOCC2)n1 | 104 | -13 | 90 | 59
COCC(C)n1c(SCc2ccc(C(=O)OC)o2)nc2ccccc2c1=O (stereo unspecified) | / | -34 | 90 | 87
COc1ccc(Br)cc1CSCCC#N | 107 | -31 | 106 | 97
COC(=O)c1ccc(S(=O)(=O)N2CCCN(c3nccc(C(F)(F)F)n3)CC2)n1C | 107 | -8 | 104 | 97
COc1ccc([N+](=O)[O-])cc1NC(=O)c1sc2ncnc(N3CCCCC3)c2c1C | 118 | -24 | / | /
Cn1c2ccccc2n2c(CCC(=O)O)c(-c3ccccc3)nc12 | / | 1 | 111 | 91
c1coc(-c2nc3sc4c(NCCN5CCOCC5)ncnc4c3c3c2CCCC3)c1 | 106 | -38 | 96 | 74
CCCc1nc(SCc2cc(=O)c3ccc(C)c(C)c3[nH]2)n[nH]1 | 113 | / | 97 | 93
